Marburg entry inh = inhibitors of Marburg virus binding or cell entry | Marburg virus pseudotyped entry inhibition, cell reporter; control for the full effect not named in the record; about a third of the inactives were read at about 46 µM | Potency, µM (highest dose often 37.8 µM), for the others: at the highest dose activity change, negative = inhibition, actives largely listed as inhibitors | 300,000 tested, 1.8% active | AID 540276; active = well fitted inhibition curve with a large enough effect; inconclusive = small, poorly fitted or top-dose-only effect, or effect the other way; inactive = flat fitted curve, though single readings scatter; tested in HEK293 cells; about a fifth of its hits are not listed in these tables; also: % is scaled to controls: 0 for no effect and ±100 for the full control effect; luciferase read-out
2A StopGo = FMDV 2A StopGo reporter, luciferase signal; human cells with a luciferase reporter of 2A StopGo recoding; control for the full effect not named in the record; Potency, µM (highest dose often 57.9 µM), for the others: at the highest dose signal change, negative = less light; AID 1159524; 410,000 tested, 1.2% active; active = well fitted falling curve with a large enough effect; inconclusive = small, poorly fitted or top-dose-only effect; inactive = no such curve, though single readings can be large or run the other way; tested in HEK293T cells; also: % is scaled to controls: 0 for no effect and ±100 for the full control effect; nearly all actives have a fitted effect of over 45% in size; luciferase light after 4 h
LASV entry inh = inhibitors of Lassa virus binding or cell entry; 300,000 tested, 1.2% active; Lassa virus pseudotype entry inhibition, cell reporter; control for the full effect not named in the record; Potency, µM (series often up to 37.9 µM), without a hit: at the highest dose activity change, negative = inhibition, hits mostly inhibitors; active means well fitted inhibition curve with a large enough effect; inconclusive means small, poorly fitted or top-dose-only effect, or effect the other way; inactive means flat fitted curve, though single readings scatter; tested in HEK293 cells; also: % is scaled to controls: 0 for no effect and ±100 for the full control effect; nearly all actives have a fitted effect of over 50% in size; luciferase read-out
SARS PLpro yeast = inhibitors of SARS-CoV papain-like protease in yeast; S. cerevisiae expressing SARS-CoV PLpro, growth rescue; control for the full effect not named in the record; Potency, µM (highest dose often 32.9 µM), without a hit: at the highest dose activity, positive = growth rescue; 330,000 tested, 0.19% active; AID 485353; active means well fitted rising curve with a large enough effect; inconclusive means small, poorly fitted or top-dose-only effect; inactive means no such curve, though single readings can be large or run the other way; also: 0% is about no effect; nearly all actives have a fitted effect of over 55% in size; growth read by luminescence after 48 h
Cruzain inh Det = cruzain (T. cruzi) inhibition with detergent | P25779 | purified cruzain, Z-FR-AMC fluorescence, 0.01% Triton | Potency, µM, for the others: max response, negative = inhibition, actives largely listed as inhibitors | 200,000 tested, 0.43% active;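 also: plate controls were neutral wells for no effect and buffer without enzyme for full effect; nearly all actives have a fitted effect of over 40% in size; top concentration of the series not given in the record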
Target sequence (P25779 123-467 limits assumed): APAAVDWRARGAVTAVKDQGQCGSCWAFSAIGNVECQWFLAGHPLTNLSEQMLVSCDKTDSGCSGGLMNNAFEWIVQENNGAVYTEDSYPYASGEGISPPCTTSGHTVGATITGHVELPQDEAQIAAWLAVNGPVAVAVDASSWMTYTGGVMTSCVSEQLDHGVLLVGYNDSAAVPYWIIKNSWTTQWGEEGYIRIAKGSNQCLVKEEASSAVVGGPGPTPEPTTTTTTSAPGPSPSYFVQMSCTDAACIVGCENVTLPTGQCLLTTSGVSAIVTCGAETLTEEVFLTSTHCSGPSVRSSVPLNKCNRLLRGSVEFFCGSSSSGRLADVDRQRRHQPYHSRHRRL
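15 min RT preincubation of 1.5 nM cruzain with compound, then 2 uM Z-FR-AMC added; kinetic AMC fluorescence, 60 s delta. Triton X-100 0.01%, pH 5.5.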
RE007 growth inh = less growth of the S. pombe RE007 Vpr strain; S. pombe RE007 Vpr strain, BacTiter-Glo ATP luminescence, 24 h; control for the full effect not named in the record; Potency, µM (top dose mostly 92.2 µM), for the others: at the top dose activity change, negative = less growth; 360,000 tested, 0.21% active; active = well fitted falling curve with a large enough effect; inconclusive = small, poorly fitted or top-dose-only effect; inactive = no such curve, though single readings can be large or run the other way;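 also: % is scaled to controls: 0 for no effect and ±100 for the full control effect; nearly all actives have a fitted effect of over 50% in size; the assay follows cell death caused by Vpr and the record does not say whether a fall means rescue or toxicity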
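Fission yeast strain RE007, carrying one chromosomally integrated HIV-1 vpr copy, was seeded at OD 0.01 in PMG+AL medium with 23 nL pinned compound. After 24 h at 30 °C and 99% humidity, viability was read by BacTiter-Glo luminescence.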
NS1 inh = inhibitors of influenza NS1 protein function; S. cerevisiae slowed by influenza A NS1, growth recovery by OD600; Potency, µM (doses to about 46.1 µM), inactives show at the highest dose activity, positive = more growth; 270,000 tested, 0.4% active; active means well fitted rising curve with a large enough effect; inconclusive means small, poorly fitted or top-dose-only effect; inactive means no such curve, though single readings can be large or run the other way; also: nearly all actives have a fitted effect of over 50% in size
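Compounds were scored for reversing the slow growth caused by influenza A NS1 in S. cerevisiae, measured by optical density at 600 nm. Assay medium contained 2% galactose at pH 6.0; NS1-free yeast of the same strain were the positive control.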
Cruzain noTriton = cruzain (T. cruzi) inhibition without detergent; Potency, µM, for the others: max response, negative = inhibition, hits mostly inhibitors; 200,000 tested, 2.3% active; P25779; AID 1476; purified cruzain, Z-FR-AMC fluorescence, no detergent;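 also: plate controls were enzyme without inhibitor for no effect and buffer without enzyme for full effect; nearly all actives have a fitted effect of over 40% in size; top concentration of the series not given in the record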
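Detergent-free condition (0.00005% Triton X-100) in acetate buffer pH 5.5 with DTT. 1.5 nM enzyme and compound were pre-mixed 15 min, then 2 uM Z-FR-AMC substrate added; reaction progress from fluorescence change between first and third reads (60 s).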
Numbers without * were called inactive; ? = inconclusive; . = no result given; [ ] = remark or other dose. Unless noted, calls follow the shape of the dose curve; as a rule, active = well fitted curve in the direction sought with a large enough effect; inconclusive = small, poorly fitted or top-dose-only effect, or another doubt; inactive = no such curve, though single readings can be large; an effect the other way counts as inactive or inconclusive. Potency is read from the fitted curve at half-maximal effect. No enrichment for hits; 4.5% or so of the library scored in one or more.

SMILES	Marburg entry inh	2A StopGo	LASV entry inh	SARS PLpro yeast	Cruzain inh Det	RE007 growth inh	NS1 inh	Cruzain noTriton
CCCN1C(=O)/C(=C/c2cc(C)n(C)c2C)SC1=Nc1ccc(OCC)cc1	-2%	0%	-22%	-10%	0.1%	-10%	18%	17%
CCCCCN(C(=O)CCC(=O)OCC(=O)N1CCCCC1)c1c(N)n(CCCC)c(=O)[nH]c1=O	-1%	-13%	7%	1%	.	-7%	5%	.
COc1ccc(NC(=O)c2sc3ncn(CC(=O)N4CCN(c5ccccn5)CC4)c(=O)c3c2C)c(OC)c1	.	5%	.	1%	.	-8%	4%	.
O=C(O)CCCC1(C(=O)O)CCCC1	?	-9%	0%[46.1 µM]	.	.	7%	.	.
O=[N+]([O-])c1ccccc1S(=O)(=O)N1CCN(C2CCCC2)CC1	16%	-18%	26%	-3%	.	3%	9%	.
Cc1ccc(C)c(N2CCN(c3nc4ccccc4c(=O)n3-c3ccccc3)CC2)c1	-15%[46.1 µM]	?	11%[46.1 µM]	.	-0.9%	.	.	-5%
Cn1ncc([N+](=O)[O-])c1C(=O)Nc1ccccc1C(=O)O	-14%[46.1 µM]	-19%	28%[46.1 µM]	1%	.	2%	11%	.
CCOC(=O)N1CCC(N2Cc3cccc(C(=O)Nc4cc(F)ccc4F)c3C2=O)CC1	0%	?	.	-4%	-6.3%	4%	-17%	?
COc1ccc(CN(C)C(=O)c2cc(S(=O)(=O)N3CCOCC3)ccc2N2CCCC2)cc1	-24%[46.1 µM]	-4%	?	.	.	-22%	.	.
Cc1cc2cc(CNC(=S)Nc3ccc(OC(F)(F)F)cc3)ccc2[nH]1	-20%	-6%	-21%	3%	-2.8%	-6%	?	?
CN(Cc1ccccc1)C(=O)COC(=O)c1ccc(Br)o1	16%	-17%	-1%	-2%	.	41%	.	.
C[C@H](NC(=O)C1CCN(C(=O)[C@H](Cc2ccccc2)NC(=O)OC(C)(C)C)CC1)C(=O)O	-1%[46.1 µM]	-9%	12%[46.1 µM]	-1%	.	-6%	1%	.
Cc1cc(=O)oc2cc(OC(C)C(=O)NCCCn3ccnc3)ccc12 (stereo not drawn)	-1%[46.1 µM]	-9%	21%[46.1 µM]	4%	.	-16%	-5%	.
Nc1ccc(Oc2ccccc2F)nc1	12%[46.1 µM]	0%	1%[46.1 µM]	0%	.	10%	0%	.
Cc1ccc2c(=O)c(CN3CCCCCC3)c(C)[nH]c2c1C	?	-2%	-8%[46.1 µM]	8%	.	-11%	0%	.
CC(=O)C1=C(O)C(=O)N(c2ccc(O)cc2)C1c1ccccc1Cl (stereo not drawn)	?	1%	22%	5%	.	-5%	16%	.
COc1ccc(C(=O)NCC2CCCCC2)cc1S(=O)(=O)N1CCOCC1	5%[46.1 µM]	12%	0%[46.1 µM]	-2%	.	8%	.	.
COc1ccc(NC(=O)CSc2nc(C(C)C)nc3c2c(=O)n(C)c(=O)n3C)c(OC)c1	.	-16%	.	1%	.	8%	1%	.
COC(=O)c1ccccc1NC(=O)c1cc(-c2ccccc2O)no1	.	3%	?	.	-8.5%	.	.	?
O=C(N/C(=C\c1ccco1)C(=O)N1CCOCC1)c1ccccc1Cl	3%[46.1 µM]	-11%	1%	0%	.	2%	-10%	.

The list goes on, starting with the last 6 of the part before.
SMILES	Marburg entry inh	2A StopGo	LASV entry inh	SARS PLpro yeast	Cruzain inh Det	RE007 growth inh	NS1 inh	Cruzain noTriton
Cc1ccc2c(=O)c(CN3CCCCCC3)c(C)[nH]c2c1C	?	-2%	-8%[46.1 µM]	8%	.	-11%	0%	.
CC(=O)C1=C(O)C(=O)N(c2ccc(O)cc2)C1c1ccccc1Cl (stereo not drawn)	?	1%	22%	5%	.	-5%	16%	.
COc1ccc(C(=O)NCC2CCCCC2)cc1S(=O)(=O)N1CCOCC1	5%[46.1 µM]	12%	0%[46.1 µM]	-2%	.	8%	.	.
COc1ccc(NC(=O)CSc2nc(C(C)C)nc3c2c(=O)n(C)c(=O)n3C)c(OC)c1	.	-16%	.	1%	.	8%	1%	.
COC(=O)c1ccccc1NC(=O)c1cc(-c2ccccc2O)no1	.	3%	?	.	-8.5%	.	.	?
O=C(N/C(=C\c1ccco1)C(=O)N1CCOCC1)c1ccccc1Cl	3%[46.1 µM]	-11%	1%	0%	.	2%	-10%	.
Clc1ccccc1CN(Cc1ccccc1)C(c1cccs1)c1nnnn1C1CCCC1 (stereo not drawn)	?	6%	-28%	.	5.7%	-6%	-13%	-13%
COc1ccc(CCNC(=O)c2c(C)nn(CC(C)C)c2Cl)cc1OC	?	-6%	?	0%	.	15%	-3%	.
Cc1cc(C(=O)CCC(=O)Nc2ncccc2O)c(C)s1	28%[46.1 µM]	13%	4%	-6%	.	17%	.	.
O=C(CCc1ccccc1)NC(=S)NCc1ccco1	2%[46.1 µM]	3%	?	0%	.	2%	-1%	.
CCC(C)NC(=O)CSc1nc(-c2ccc(F)cc2)cc(C(F)(F)F)n1 (stereo not drawn)	22%[46.1 µM]	0%	?	.	-1.3%	.	.	2%
O=c1[nH]c2ccc(NC(=S)Nc3ccccc3Cl)cc2[nH]1	?	0%	1%	17%	2.2%	-2%	-3%	-9%
CCOC(=O)c1ccc(NC(=O)Cn2cnc3cc(C)c(C)cc32)cc1	.	?	.	6%	.	1%	-13%	.
CCN(CC)c1cc(Oc2ccccc2)ncn1	?	7%	2%	-5%	9.9%	-12%	-3%	3%
CCc1ccccc1NC(=O)CN(C)C(=O)COC(=O)c1c(Cl)cccc1Cl	6%	-15%	?	4%	.	7%	.	.
O=C(COC(=O)CCC(=O)c1cccs1)NCc1ccco1	0%	8%	-10%	1%	-1.5%	-1%	8%	-20%
COc1ccc(CCCc2nnc(SCC(=O)Nc3nccs3)n2C)cc1C	4%	-27%	21µM*	0%	3.0%	-15%	2%	0%
COc1ccc(CNC(=O)CCC(=O)N2C[C@H]3C[C@H](C2)c2cccc(=O)n2C3)cc1OC	.	-22%	.	-3%	.	5%	7%	.
O=C(NCCc1ccccc1)c1nc2c(nnn2Cc2ccccc2Cl)c(=O)[nH]1	-17%	5%	4%	14%	-4.2%	-4%	-39%	-18%
O=C(c1ccc2c3c(cccc13)CC2)C1CCCN(Cc2ncc[nH]2)C1 (stereo not drawn)	-20%[46.1 µM]	-15%	?	0%	.	-16%	2%	.
Cc1cc(NC(=O)CN2CCN(C)CC2)no1	-4%	-8%	-19%	0%	.	-8%	.	.
O=C(NCc1ccco1)c1n[nH]c(=O)c2ccccc12	2%	6%	14%	1%	1.0%	14%	2%	2%
CCC(=O)Nc1ccc(F)c(Cl)c1	-13%	10%	-4%	-2%	2.3%	3%	-36%	0%
COc1ccc(C(=O)CSc2nnc(-c3ccco3)c(-c3ccco3)n2)cc1	-5%	-2%	-25%	-1%	.	8%	6%	.
Cc1nc2c([nH]1)C1(CCN(Cc3ccccc3)CC1)C(C#N)=C(N)O2	0%[46.1 µM]	-21%	-18%	-4%	-1.8%	1%	0%	-12%
CCOc1ccc(NC(=O)CSc2nc3nc(C)cc(C)n3n2)cc1	-13%[46.1 µM]	?	?	2%	.	1%	3%	.

A different layout for 2 compounds above:
Order of results – Marburg entry inh	2A StopGo	LASV entry inh	SARS PLpro yeast	Cruzain inh Det	RE007 growth inh	NS1 inh	Cruzain noTriton
O=C(COC(=O)CCC(=O)c1cccs1)NCc1ccco1
→ 0%	8%	-10%	1%	-1.5%	-1%	8%	-20%
COc1ccc(CCCc2nnc(SCC(=O)Nc3nccs3)n2C)cc1C
→ 4%	-27%	21µM*	0%	3.0%	-15%	2%	0%

The list continues:
SMILES	Marburg entry inh	2A StopGo	LASV entry inh	SARS PLpro yeast	Cruzain inh Det	RE007 growth inh	NS1 inh	Cruzain noTriton
O=C(NCc1cccs1)C1CCN(S(=O)(=O)c2ccc(Br)s2)CC1	?	-23%	5%	-4%	1.5%	-5%	-4%	-2%
CCOC(=O)c1ccc(OCC2c3cc(OC)c(OC)cc3CCN2C(=O)Cc2ccc(F)cc2)cc1 (stereo not drawn)	.	-25%	?	.	0.5%	.	.	16%
CCOc1ccccc1N(C)C(=O)Cn1ncc2c([nH]c3ccc(C)cc32)c1=O	.	-17%	.	1%	.	7%	11%	.
C/C=C\C=C/C(=O)Nc1cccc(C2=NOC3(C2)C[C@@H](C(N)=O)N(C(=O)/C=C/C=C\C)C3)c1 (stereo partly drawn)	.	-6%	.	0%	.	16%	-8%	.
COC(=O)c1ccccc1NC(=O)C1CCN(C(=O)c2ccc(OC)cc2)CC1	15%	-24%	1%	4%	2.1%	10%	-3%	6%
O=S(=O)(c1ccccc1)N1CCN(c2ncnc3sc(-c4ccccc4)cc23)CC1	?	?	6%	2%	-13%	11%	-39%	?
CC(=O)c1ccc(NC(=O)CN2CCOCC2)cc1	.	0%	.	2%	.	22%	6%	.
C[C@@H]1C(c2ccccc2)=NN(c2ccccc2)[C@H]1C(=O)N1CCOC1=O	.	-24%	.	7%	-1.7%	1%	.	-2%
COc1ccc(COc2ccc3c(C)cc(=O)oc3c2)cc1	.	57%[activator]	.	0%	.	3%	-3%	.
Cc1ccc2nc(CNC(=O)C3CCC(=O)N(Cc4ccccc4F)C3)cn2c1 (stereo not drawn)	?	0%	16%	-1%	.	-22%	1%	.
O=c1c(C(c2ccc(F)cc2)c2c(O)nc3n(c2=O)CCS3)c(O)nc2n1CCS2	0%[14.2 µM]	-12%	-20%	2%	.	-10%	8%	.
COc1ccc(OC)c(CNC(=O)c2cccc(NC(=O)N3CCSc4ncccc43)c2)c1	.	?	7%[46.1 µM]	.	-18%	.	.	-14%

Source: PubChem BioAssay
